Bioassay records deposited in PubChem by ICCB-Longwood Screening Facility, Harvard Medical School.
KSHV LANA nucl: inhibitors of KSHV LANA binding to nucleosomes; FITC-LANA1-23 / chicken nucleosome fluorescence polarization; stronger effect = lower value; AID 720717; z-score (no concentration beside the values); hit rate 0.3% among 51,000;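 active = both repeat wells score below -2 in polarization z-score versus plate sample wells, excluding overly bright wells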;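 note: 100 nL library stock added to about 30 µL; numbers are from one replicate; some results filed as inactive read as strong as hits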
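Assay system: purified chicken nucleosomes with FITC-labelled LANA N-terminal peptide (1-23) / Probe or stimulus: 50 nM FITC-LANA1-23 probe / Compound dosing: pin-transferred compound, 100 nL / Times: compound with peptide–nucleosome mix 10–45 min at room temperature / Technique: fluorescence polarization, 480 nm excitation, 535 nm parallel and perpendicular emission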
Ab BasE inh: blocks the Acinetobacter baumannii siderophore enzyme BasE; purified BasE, fluorescence polarization binding displacement; inhibition, % (no concentration beside the values); hit rate 0.1% among 84,000;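 active = both replicates above 25% with normal brightness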;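 note: 0% = negative plate control signal and 100% = positive plate control signal; stock transfer was 100 nL into about 30 µL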
* = called active by the depositor; x = not tested or not shown.

The first 5 compounds as a preview:
SMILES	KSHV LANA nucl	Ab BasE inh
COc1cc(C(=O)OC(C)CN2C(C)CCCC2C)cc(OC)c1OC (stereo unspecified)	-0.42	-20
Clc1ncc(CN2CCN(c3ccccc3)CC2)s1	0.32	x
COc1cccc(C2CC(C(F)(F)F)n3ncc(C(=O)N4CCCCC4)c3N2)c1 (stereo unspecified)	-1.5	1.8
CC1C/C=C/C=C/C=C/C=C/C(O[C@@H]2O[C@H](C)[C@@H](O)[C@H](N)[C@@H]2O)CC2OC(O)(CC(O)CC3OC3/C=C/C(=O)O1)CC(O)C2C(=O)O (stereo partly specified)	0.54	x
Cc1ccc(C)c(-n2nnnc2SCC(=O)N2CCCCC2C(N)=O)c1 (stereo unspecified)	x	0.3

Results, from the start:
SMILES	KSHV LANA nucl	Ab BasE inh
COc1cc(C(=O)OC(C)CN2C(C)CCCC2C)cc(OC)c1OC (stereo unspecified)	-0.42	-20
Clc1ncc(CN2CCN(c3ccccc3)CC2)s1	0.32	x
COc1cccc(C2CC(C(F)(F)F)n3ncc(C(=O)N4CCCCC4)c3N2)c1 (stereo unspecified)	-1.5	1.8
CC1C/C=C/C=C/C=C/C=C/C(O[C@@H]2O[C@H](C)[C@@H](O)[C@H](N)[C@@H]2O)CC2OC(O)(CC(O)CC3OC3/C=C/C(=O)O1)CC(O)C2C(=O)O (stereo partly specified)	0.54	x
Cc1ccc(C)c(-n2nnnc2SCC(=O)N2CCCCC2C(N)=O)c1 (stereo unspecified)	x	0.3
O=C(OCC(=O)N1CCCC1=O)c1ccc2ccccc2n1	x	1.3
CC(C)(C)C(=O)Nc1c(Br)c(C2CC2)nn1-c1ccccc1	0.63	1.4
COC(=O)C(C)Sc1ccc2nnc(-c3cccnc3)n2n1 (stereo unspecified)	2.6	1.5
O=C(CCC1CCCC1)OCc1nnc(-c2ccccc2Br)o1	x	1.8
Cc1nn(-c2ccccc2)cc1/C=C1/CN(C)C/C(=C/c2cn(-c3ccccc3)nc2C)C1=O	x	-0.5
c1ccc(Nc2ncn[nH]2)cc1	0.33	x
CCOC(=O)c1s/c(=N/N=C(C)C)n(C)c1C	1.3	-1.7
Cc1ccc2c(n1)CC(C)(C)C/C2=N/O	0.025	6.0
CCS(=O)(=O)c1ccc(O)c(-n2c(=S)[nH]c3ccccc3c2=O)c1	x	3.5
N#Cc1ncc(C(F)(F)F)cc1S(=O)(=O)c1ccc(Cl)cc1	-0.2	x
O=S(=O)(Cc1ccc(Cl)cc1)c1nc2ccccc2[nH]1	-0.51	1.2
CCNc1c(NS(=O)(=O)c2ccc(F)cc2)c(=O)oc2ccccc12	-0.62	1.8
O=C(O)C=C1C2CC3CC(C2)CC1C3	x	2.8
CC1(C)C(=O)NCCN1C(=O)CCC(=O)O	0.3	2.3
COc1ccc(N2C(=O)CSC23C(=O)N(CN2CCCC(C)C2)c2ccccc23)cc1 (stereo unspecified)	0.31	1.8
COc1ccc(OCC(O)CNS(=O)(=O)c2ccc(C)cc2)cc1 (stereo unspecified)	0.0025	0.7
O=CN/N=C/c1cn(-c2cccs2)nc1-c1ccccc1	x	1.6
CCOC(=O)COc1nc(-c2ccco2)cc(-c2ccco2)c1C#N	0.12	-3.6
Cc1c(C(=O)/C=C/N(C)C)nnn1-c1ccc(Cl)c(Cl)c1	-0.018	x
Cc1c(C(=O)OCC(=O)Nc2ccc(C#N)cc2)oc2ccccc12	x	0.5
O=S(=O)(CCSc1ccccn1)c1nc2ccccc2s1	0.36	-1.4
Cc1ccccc1-n1c2c(c(=O)[nH]c1=S)CN(Cc1ccco1)CN2	0.014	2.5
O=C(/C=C/c1ccco1)/C=C/c1ccco1	x	17
NNc1ncnc2sccc12	x	1.6
O=C1CC(N2CCCC2)C(=O)N1c1ccccc1 (stereo unspecified)	-0.9	1.8
CCCn1c(=O)c(Br)cn(-c2ccccc2C)c1=O	1.1	0.2
Cc1c(Sc2ccc(Cl)cc2)c(=O)[nH]c2cc3c(cc12)OCO3	-0.74	-1.4
Cc1ccc(NC(=S)NC(=O)C23CC4CCC(CC(C4)C2)C3)cc1	x	2.3
O=C(NC(=S)Nc1ccncc1)c1ccccc1	x	1.8
CCC(C)NC(=O)C1CCN(S(=O)(=O)c2ccc3c(c2)CCCC(=O)N3)CC1 (stereo unspecified)	x	-1.7
COc1ccc(-c2noc(CNC(=O)CC(c3ccccc3)c3ccccc3)n2)cc1	-1.1	0.5
Fc1cccc(Cl)c1CN1CCN(CCCNc2ncnc3scc(-c4ccccc4)c23)CC1	x	1.5
CN1C(=O)c2ccc(-c3nc4ccc(Cl)cc4c(=O)o3)cc2C1=O	x	0.6
O=C1CCN(Cc2ccccc2)C(=S)N1	0.26	0.3
Cc1cc(NS(=O)(=O)c2ccc(NC(=O)CSc3nnc(-c4ccccn4)n3Cc3ccco3)cc2)nc(C)n1	0.18	1.0
N#CC(C#N)=C(N)Nc1cccc(Cl)c1	-0.98	x
C=CCN1C(=O)CSC1=Nc1ccc(C(=O)O)cc1	0.18	0.5
O=C(O)CN1C(=O)/C(=C2\SC(=Nc3ccc(Br)cc3)NC2=O)c2ccccc21	-0.33	1.1
Cc1c(C(=O)N=c2sc3ccccc3n2C)sc2nc3n(c(=O)c12)CCC3	x	6.1
Cc1noc(C)c1COc1ccc(C(=O)N2CCOCC2)cc1	x	-1.8
O=C(CN1CCC(NC(=O)NC2CCCCC2)CC1)Nc1cccc(I)c1	0.087	5.5
COc1cccc(Cn2cc(NC(=O)Nc3ccc(F)cc3F)cn2)c1	-0.24	0.0
c1ccc2sc(C3CCCN3Cn3nnc4ccccc43)nc2c1 (stereo unspecified)	x	-0.7
COc1ccc(S(=O)(=O)c2cn(CC(=O)Nc3cccc(OC)c3)c3nc(C)ccc3c2=O)cc1	0.47	-5.1
CCc1ccc(C2NC(=O)c3c(sc4c3CCN(C)C4)N2)cc1 (stereo unspecified)	x	0.3
OC(c1ccc(Cl)cc1)C(O)c1nc2ccccc2[nH]1 (stereo unspecified)	x	-0.2
O=c1c2cnn(-c3cccc(Cl)c3)c2ncn1CC1CCCO1 (stereo unspecified)	x	-4.9
O=C(NC1CCCCC1)c1noc2c1CCc1ccccc1-2	0.14	1.8
O=C1c2ccccc2O[C@@H](c2ccc(Cl)cc2)[C@@H]1O	x	3.0
C=CCOc1ccc(C2/C(=C(\O)c3ccc(OC)cc3)C(=O)C(=O)N2CCN2CCNCC2)cc1 (stereo unspecified)	0.031	2.4
NNC(=O)c1cccc(S(=O)(=O)Nc2cccc(C(F)(F)F)c2)c1	x	-2.9
CC(=O)Nc1cccc2c1Cc1ccccc1-2	-0.21	2.5
COC(=O)CN(c1ccc2c(c1)OCCO2)S(C)(=O)=O	-0.45	0.7
COc1cccc(OCc2nc3ccccc3[nH]2)c1	0.02	-0.6
COc1ccc(NC(=O)CN(c2ccc(C)cc2)S(=O)(=O)c2ccc(OC)cc2)cc1	x	0.6
Going on with the list:
SMILES	KSHV LANA nucl	Ab BasE inh
CC(C(=O)Nc1ccc2c(c1)OCO2)N1CCN(S(=O)(=O)/C=C/c2ccccc2)CC1 (stereo unspecified)	x	1.9
CC(Oc1cccc2c1OC(C)(C)C2)C(=O)N(C)c1ccccc1 (stereo unspecified)	x	1.8
CCN(CC)C(=S)Oc1ccc(C#N)cc1	x	-0.2
CC(C)S(=O)(=O)c1cscc1N1C(=O)c2ccccc2C1=O	x	-1.0
O=C1CS/C(=N\c2nccs2)N1	x	-17
CN(CC(=O)Nc1ccccc1C(=O)Nc1ccccc1)C1CCS(=O)(=O)C1 (stereo unspecified)	x	-0.3
O=C(O)CSCC(=O)N1CCN(Cc2ccc3c(c2)OCO3)CC1	x	3.8
COC(=O)c1c(C)oc(C)c1S(=O)(=O)N1CCOCC1	x	1.9
O=C1CSC(c2ccccc2)N1C1CCCCC1 (stereo unspecified)	x	0.1
CCOC(=O)c1cnc(SCC(=O)N2CCCCC2C)nc1N (stereo unspecified)	0.053	0.3
Cc1c(Cc2ccccc2)c(-n2ccnc2C)n2c(nc3ccccc32)c1C#N	1.4	-6.4
Nc1cccc2c1C(=O)N(c1ccc(Cl)c(Cl)c1)C2=O	-0.43	1.3
CCN(Cc1ccncc1)Cn1c(=S)oc2ccccc21	x	2.6
COc1ccc(OCc2cccc(C(=O)O)c2)cc1	2.2	2.7
O=S(=O)(Nc1cc(C(F)(F)F)ccc1N1CCc2ccccc2C1)c1cccc2nonc12	1.4	0.3
Cc1occc1C(=O)N1CCN(c2ccc(Cl)c(Cl)c2)CC1	0.75	-2.0
CCN1CCN(c2ccc(NC(=O)c3ccc(C)cc3)cc2)CC1	1.6	x
N#CCCNCCN1CCOCC1	x	1.7
COC(=O)C1=CN(C(C)C)C=C(C(=O)OC)C1c1cccs1	-1.2	-12
COCCn1c(COc2ccc(Cl)cc2)nnc1SCC(=O)OC	-0.23	0.4
CCOC(=O)Cc1sc(NC(C)=O)nc1-c1ccccc1	x	0.7
Nc1nc(N)nc(-c2ccccc2)n1	0.33	2.1
CCNC(=O)/N=C1\NC(=O)C(C(C)C)O1 (stereo unspecified)	x	1.9
CCCCNC(=O)c1ccc(CS(=O)(=O)c2cccc(C(F)(F)F)c2)o1	0.53	0.2
Cc1nc(Cc2nnc(SCC(=O)N3c4ccccc4NC(=O)C3(C)C)o2)cs1	x	1.7
CC1CCCN(S(=O)(=O)c2ccc(/C(O)=C(\C#N)c3nc4ccccc4n3C)cc2)C1 (stereo unspecified)	-0.076	1.4
CC1(C)CC2CC(C)(CN2C(=O)c2cc(-c3ccccc3)on2)C1 (stereo unspecified)	-1.4	-1.4
CCCN(Cc1nnc(-c2ccco2)o1)C(=O)/C=C/c1nc2ccccc2s1	x	0.3
CC(NC(=O)c1cc(-c2ccc(Cl)cc2)n[nH]1)c1ccc2c(c1)OCCO2 (stereo unspecified)	-1.1	-0.9
COC(=O)c1c(NC(=O)CN2CCN(c3ccccc3O)CC2)sc2c1CCC2	x	3.0
Cc1ccc(CN2CCc3[nH]c(=S)[nH]c(=O)c3C2)cc1	-0.51	-0.7
O=C(C1CC1)N1CCc2cc(Br)cc(S(=O)(=O)NCc3cccs3)c21	-0.17	-3.3
Cc1ccc(S(=O)(=O)CCSc2sc(C#N)c3c2C(=O)CC(C)(C)C3)cc1	x	1.6
CCN(CC)P(=NC(=S)N1CCCC1)(c1ccccc1)N(CC)CC	x	2.6
Clc1cccc(N2CCN(C3=Cc4ccccc4C3)CC2)c1	0.33	2.5
COC(=O)N1CCc2cc(OC)c(OC)cc2C1c1ccc(OC)c(OC)c1 (stereo unspecified)	-0.58	0.0
CC(=O)Nc1ccc(NC(=O)C(C)OC(=O)c2cc(C)oc2C)cc1 (stereo unspecified)	x	-0.1
O=C(Nc1nc2c(Cl)cccc2s1)c1ccc2ncsc2c1	0.13	0.3
COC(=O)C1=C(C)N(c2ccc(C(C)C)cc2)C(=O)/C1=C\c1ccco1	x	-0.2
Cc1onc(-c2ccccc2)c1C(=O)NC(C)C	-0.52	0.0
CCCCc1ccc(CC(=O)O)cc1	x	1.7
CSC1=NCCN1C(=O)C(C)(C)Oc1ccc(Cl)cc1	0.21	1.7
CC1Cc2ccccc2N1C(=O)C1CCN(S(=O)(=O)c2ccc(-n3cnnn3)cc2)CC1 (stereo unspecified)	0.075	3.4
O=C(NCC(c1ccco1)N1CCCC1)c1ccc(Cl)cc1 (stereo unspecified)	0.31	-1.2
Cc1c(-c2ccc(C#N)cc2)oc2ccccc2c1=O	x	-6.0
CC1CC(C)CN(C(=O)CSc2nc3ccsc3c(=O)n2Cc2ccccn2)C1 (stereo unspecified)	-0.062	2.0
CS(=O)(=O)n1c(=O)sc2ccccc21	0.1	-1.9
O=C(CN1CCOCC1)Nc1scc2c1c(=O)oc1ccccc12	0.13	0.5
COC(=O)C1CCN1CC1CCCO1 (stereo unspecified)	x	1.1
CCN(CC)C(=O)Oc1c(Br)cc(Br)c2ccc(C)nc12	x	0.0
Nc1nc(N)c2[nH]c(C3CCCCC3)nc2n1	x	2.7
COc1cc2c(cc1OC)CN(C(=O)/C=C/c1ccc(F)cc1)CC2	x	1.3
NC(=S)NC(=O)/C=C/c1ccccc1	x	1.6
CCn1c(=O)c(C(=O)CSc2nnc(NC3CC3)s2)c(N)n(Cc2ccccc2)c1=O	x	-0.6
COc1ccc(CSC(=N)N)cc1Cl	0.22	-0.9
CCOC(=O)c1[nH]c(C)c(C(=O)N2CCc3ccccc3C2)c1C	0.36	0.2
CC(=O)Nc1ccccc1N1CCOCC1	0.45	x
O=C(CCn1c(=O)c2cccn2c2ccc(F)cc21)NC1CCCCC1	-0.07	1.3
CC(=O)N(c1ccccc1)c1nc(CSc2nnnn2C)cs1	x	1.9
CCc1ccc2nc(NC(=O)CCn3[nH]c(=O)ccc3=O)sc2c1	x	-0.5
CC1CC(C)CN(C(=O)Cn2c3ccccc3c3cn[nH]c(=O)c32)C1 (stereo unspecified)	-0.34	1.2
O=C(Nc1cc2ccccc2s1)Nc1ccc(F)cc1F	x	1.3

Profiles, quoted from the list. Screens in order: KSHV LANA nucl	Ab BasE inh
Nc1nc(N)c2[nH]c(C3CCCCC3)nc2n1 is listed as x	2.7
CCOC(=O)c1[nH]c(C)c(C(=O)N2CCc3ccccc3C2)c1C is listed as 0.36	0.2
CCN(CC)C(=O)Oc1c(Br)cc(Br)c2ccc(C)nc12 is listed as x	0.0
CCn1c(=O)c(C(=O)CSc2nnc(NC3CC3)s2)c(N)n(Cc2ccccc2)c1=O is listed as x	-0.6
O=C(Nc1cc2ccccc2s1)Nc1ccc(F)cc1F is listed as x	1.3

These rows are one share of the data; the hit share may differ from the screen's.
